High-throughput results as filed in PubChem BioAssay.
TRPML1 inh = human mucolipin-1 channel inhibition. Q9GZU1. TRPML1-inducible cells, Ca2+ dye fluorescence, FDSS; hits give low values; inhibition of EC80 agonist-evoked calcium signal. activity change, negative = inhibition, % (test concentration not listed). 0.02% of 390,000 active. AID 624415; in the data active means activity change below about -50%; inconclusive means about -30% to -50%; inactive means above about -30%;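 note: stimulus is agonist 54-4 at its EC80 concentration; % is set by controls: 0 for no effect and ±100 for the full control effect; compound concentration not given in the record; the text of the record puts the active cut at -80%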
Target sequence (Q9GZU1 whole entry, looked up): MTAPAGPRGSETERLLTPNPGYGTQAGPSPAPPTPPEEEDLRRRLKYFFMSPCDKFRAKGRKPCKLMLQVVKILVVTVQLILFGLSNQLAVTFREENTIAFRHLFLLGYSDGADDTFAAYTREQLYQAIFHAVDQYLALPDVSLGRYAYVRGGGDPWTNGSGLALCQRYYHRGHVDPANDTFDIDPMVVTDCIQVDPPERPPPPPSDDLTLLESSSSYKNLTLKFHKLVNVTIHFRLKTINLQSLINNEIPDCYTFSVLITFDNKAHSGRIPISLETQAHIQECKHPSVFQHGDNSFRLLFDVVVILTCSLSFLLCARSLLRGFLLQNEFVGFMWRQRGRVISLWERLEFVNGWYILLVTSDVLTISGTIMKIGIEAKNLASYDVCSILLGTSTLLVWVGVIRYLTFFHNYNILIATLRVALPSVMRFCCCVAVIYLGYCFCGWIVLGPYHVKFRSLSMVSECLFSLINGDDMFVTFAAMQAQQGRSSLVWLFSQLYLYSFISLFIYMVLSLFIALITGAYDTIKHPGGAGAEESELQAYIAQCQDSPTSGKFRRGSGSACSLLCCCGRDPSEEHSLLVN
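Tet-induced TRPML1-DL cells loaded with Ca8 no-wash calcium dye were read kinetically on FDSS. Compound addition was followed by EC80 agonist 54-4 (4 uM final); inhibition was read over 110 s.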
PINK1 modulator = PINK1 expression modulation | PINK1 immunofluorescence, high-content cytometry, 24 h | Potency, µM (doses to about 76.6 µM), for the others: top-dose activation (PINK1 increase), hits mostly activators | 0.2% of 410,000 active; active = well fitted activation curve with a large enough effect; inconclusive = small, poorly fitted or top-dose-only effect; inactive = flat fitted curve, though single readings scatter; cell line not stated here;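 note: potency is the fitted concentration of half-maximal effect; % of control where 0% means no effect; nearly all actives have a fitted effect of over 65% in size; a mitochondrial uncoupler was the plate control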
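Cells are seeded, rested 12 hours, then given compound at five concentrations or DMSO for 24 hours. After fixation, blocking and antibody staining, PINK1 amount and mitochondrial localization are scored; CCCP serves as control.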
Six1-Eya2 inh = inhibitors of human Six1/Eya2 interaction; 0.56% of 360,000 active; AlphaScreen GST-Six1/His-Eya2 binding, biochemical; hits give low values; control for the full effect not named in the record; activity change, % (concentration not given with the values); in the data active = activity change below about -65%; inconclusive = about -30% to -65%; inactive = above about -30%; note: % is set by controls: 0 for no effect and ±100 for the full control effect
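AlphaScreen with GST-Six1 and His-Eya2 (5X mix: 250 nM and 500 nM), glutathione donor and nickel acceptor beads; buffer 50 mM Tris pH 8.0, 300 mM NaCl, 1 mM TCEP; 1 h at 37 C in the dark.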
D2 agonist = activates the human D2 dopamine receptor; P14416; DiscoveRx PathHunter D2 beta-arrestin, luminescence, 90 min; 100% = 57 uM dopamine signal; activation, % (test concentration not listed); 0.084% of 360,000 active; AID 624465; in the data active = activation above about 40%; inconclusive = about 15% to 40%; inactive = below about 15%; note: compound concentration not given in the record; the text of the record calls up to 30% inactive
Target sequence (P14416 whole entry, looked up): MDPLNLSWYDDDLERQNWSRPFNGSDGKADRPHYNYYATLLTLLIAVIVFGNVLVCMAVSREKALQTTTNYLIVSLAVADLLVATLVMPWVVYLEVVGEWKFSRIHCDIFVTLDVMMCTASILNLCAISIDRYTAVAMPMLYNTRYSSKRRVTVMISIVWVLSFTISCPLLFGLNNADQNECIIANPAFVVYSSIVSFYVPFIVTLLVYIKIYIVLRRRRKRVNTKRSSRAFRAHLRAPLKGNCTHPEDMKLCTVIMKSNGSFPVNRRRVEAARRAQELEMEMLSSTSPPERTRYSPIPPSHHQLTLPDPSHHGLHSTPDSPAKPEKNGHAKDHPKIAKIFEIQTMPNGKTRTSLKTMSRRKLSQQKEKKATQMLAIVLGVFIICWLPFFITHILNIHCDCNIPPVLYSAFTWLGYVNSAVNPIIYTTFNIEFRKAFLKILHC
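DiscoveRx PathHunter D2 beta-arrestin cells (2,100/well) attached overnight, then compound-stimulated 90 min at 37 C in HBSS/10 mM HEPES/0.1% Tween-20 buffer; beta-galactosidase complementation read by luminescence after 1 h at ambient temperature. Dopamine 57 uM final (EC100) as control.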
TRPML1 ag = agonists of human TRPML1 channel. TRPML1-expressing cells, Ca2+ dye fluorescence, FDSS; host cell line not named in the record; reference of the full effect not given here. activation, % (test concentration not listed). 0.12% of 410,000 active; in the data active = activation above about 50%; inconclusive = about 30% to 50%; inactive = below about 30%; note: 0% is about no effect; the text of the record puts the active cut at 80%
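Tetracycline-induced TRPML1-DL cells are seeded and incubated overnight before loading with a no-wash Ca2+ dye and quencher. Agonist activity is taken from the 110 s fluorescence read following compound pin-transfer on an FDSS, before EC80 54-4 challenge.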
CtBP-E1A inh = inhibitors of CtBP/E1A interaction; AlphaScreen GST-E1A/His-CtBP binding, 1536-well; hits give low values; control for the full effect not named in the record; activity change, % (test concentration not listed); 0.49% of 340,000 active; in the data active means activity change below about -65%; inconclusive means about -30% to -65%; inactive means above about -30%; note: % is set by controls: 0 for no effect and ±100 for the full control effect; compound concentration not given in the record
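AlphaScreen with 125 nM GST-E1A and 125 nM His-CtBP (5X stocks) in Tris pH 8.0, 300 mM NaCl, BSA, Tween 20, TCEP. Compounds preincubated 2 h at 37 deg C, then glutathione donor/nickel acceptor beads added for 1 h at 37 deg C in dark.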
Numbers without * were called inactive; u = inconclusive; x = not tested or not shown; & = joins results of further samples; [ ] = remark or other dose.

SMILES	TRPML1 inh	PINK1 modulator	Six1-Eya2 inh	D2 agonist	TRPML1 ag	CtBP-E1A inh
COc1cc(/C=C2/C(=O)NC(=O)N(c3ccccc3)C2=O)ccc1O	-5	-1.7%	-3	-6.0	0.0	0
CCN(CCNc1ccc([N+](=O)[O-])c2cccnc12)S(=O)(=O)c1ccccc1	51	40µM*	-4	4.5	5.0	0
O=C1/C(=C/c2cccc([N+](=O)[O-])c2)N2CCC1CC2	5	1.0%	-16	0.1	-0.8	-22
O=C1NC(=O)N(Cc2ccc(F)cc2)C(=O)/C1=C\C=C\c1ccco1	x	-0.8%	-23	-1.9	x	1
CCCCOC(=O)c1ccccc1C(=O)OCCCC	-8	5.2%&-1.0%	36	-1.8	1.4	x
c1csc(CN2CCNCC2)c1	41	-0.6%	5	0.3	0.5	2
COc1ccc(CC2(CCc3ccncc3)C(=O)NC(=O)NC2=O)c(OC)c1	41	1.6%	5	-1.0	0.2	2
CC(C)=CCN1CC[C@@]2(C)c3cc(O)ccc3CC1C2C (stereo partly drawn)	8	-0.9%	-3	4.0	0.1	2
COC(=O)C1=C(c2ccc(-c3ccccc3)c(F)c2)C[C@@H]2CC[C@H]1N2C(=O)NC1CCCCC1	3	0.3%	1	1.1	0.2	x
COc1c(C)cc(C(=O)C2CCCN(Cc3cccc(C)n3)C2)cc1C (stereo not drawn)	-14	0.2%	-6	-4.9	0.9	x

Look-ups from the results shown:
For D2 agonist, COc1ccc(CC2(CCc3ccncc3)C(=O)NC(=O)NC2=O)c(OC)c1 shows -1.0
For TRPML1 ag, c1csc(CN2CCNCC2)c1 shows 0.5

(listing goes on)
SMILES	TRPML1 inh	PINK1 modulator	Six1-Eya2 inh	D2 agonist	TRPML1 ag	CtBP-E1A inh
CCC(=NC1CC1)c1c(O)n(C2CCCCC2)c(=O)[nH]c1=O	-3	1.1%	3	x	0.1	4
Cc1ccc(-c2nc3ccccc3c(=O)n2-c2cccnc2)cc1	-11	0.2%	2	2.6	1.5	-2
CSc1ccc(CN2CCN(C(=O)Cc3ccccc3)CC2)cc1	7	0.2%	11	-6.2	0.4	x
CC(C)(C)n1c(O)c(C=Nc2ccc3c(c2)CCC3)c(=O)[nH]c1=O	7	0.7%	7	-1.2	-1.4	-3
O=c1c2ccccc2nc(-c2ccoc2)n1-c1ccccc1Cl	1	14%[38.3 µM]	-13	-4.0	1.1	-13
O=S(=O)(c1cccc(C(F)(F)F)c1)N1Cc2ccccc2-n2nncc2C1	-4	4.8%	4	-6.9	-0.6	5
COc1ccccc1OCCCn1cc(C=O)c2ccccc21	5	-0.9%	-2	-2.3	2.5	-3
COc1ccc(CC(C)Nc2cccc(F)c2)cc1 (stereo not drawn)	-10	6.2%	11	-5.0	0.9	17
CC[C@H]1CN2CC[C@@]3(C(=O)Nc4ccccc43)[C@@H]2C[C@@H]1/C(=C\OC)C(=O)OC	x	1.8%	1	-3.1	x	4
COc1ccccc1N1CCN(Cc2cc(C)c(C)cc2O)CC1	4	8.2%	-4	-5.1	-0.2	-2
CCN(CC)C(=O)c1ccc(NC(=O)CNC(C)c2cccc3ccccc23)cc1 (stereo not drawn)	1	0.1%	2	1.6	0.6	-1
COc1ccc(C(=O)OC2CC3CCC(C2)[N+]3(C)[O-])cc1OC (stereo not drawn)	-3	-2.1%	3	-3.8	0.6	10
CC(=O)NC(Cc1ccc(N(CCCl)CCCl)cc1)C(=O)NCC(=O)NCC(=O)O (stereo not drawn)	4	-1.4%	2	-6.4	-1.2	-12
CCOC(=O)N(CC)c1ccc(C(O)(C(=O)OC)C(F)(F)F)cc1 (stereo not drawn)	4	6.8%[38.3 µM]	9	1.1	0.2	3
O=C1NCN(c2ccccc2)C12CCN(C(c1ccnc3ccccc13)c1nnnn1Cc1ccccc1)CC2 (stereo not drawn)	x	0.0%	-10	-2.8	-0.1	-13
OCCOCC#CCN1CCOCC1	-15	0.2%	6	1.1	-0.2	-2
CCN(CC(=O)Nc1ccc(C#N)c(Cl)c1)CC(=O)NC(C)(C)C	6	1.7%	3	-0.8	-0.5	-19
COc1nc2ccccc2nc1N1CCN(C)CC1	-1	1.1%	-1	-5.5	-0.6	7
CN1CCN(Cc2ccccc2Sc2ccccc2)CC1	-3	0.0%	-13	-4.1	0.8	-10
CNC(=O)Oc1ccc2ncccc2c1	-13	1.3%	1	1.2	-0.4	24
CCc1c(C(=O)NN2C(=O)C3C4CCC(O4)C3C2=O)csc1C (stereo not drawn)	35	1.1%	-2	-1.6	-0.2	2
c1ccc(-n2ccnc2)cc1	6	2.2%	2	-2.6	-0.9	2
Cc1nn(Cc2ccc(Cl)cc2Cl)c(Cl)c1C(=O)NC1CCCc2ccccc21 (stereo not drawn)	45	11%	-10	0.0	-0.6	6
COc1ccc(CCNCc2c(OC)ccc3ccccc23)cc1	9	8.5%	-7	x	0.3	x
OC12CCCCC1C(c1ccccc1)NCC2 (stereo not drawn)	3	0.1%[38.3 µM]	-2	-2.4	0.3	10
CN(C)C(Cc1ccc(C#N)cc1)C(=O)c1ccccc1 (stereo not drawn)	34	-2.4%	-5	-6.5	-0.6	-2
Cc1nc2ccccc2c(=O)n1-c1ccc([N+](=O)[O-])cc1	0	-0.3%	-2	3.2	-0.3	4
CNC(C)Cc1ccccc1Sc1ccc(O)cc1 (stereo not drawn)	-6	0.1%	-1	-4.5	-0.5	3
Cc1ccc(-c2nc(N(C)C3CCN(C)CC3)c3ccccc3n2)cc1	2	0.1%[38.3 µM]	-15	-2.2	0.8	-13
Nc1c(C(=O)NCCN2CCOCC2)c2nc3ccccc3nc2n1Cc1ccco1	1	-1.6%	1	-1.1	-0.2	1
COc1cc2c(cc1OC)C(C)NCC2 (stereo not drawn)	12	0.4%&0.1%	6	3.7	-0.3	3
COc1c(C)cc(C(=O)C2CCCN(Cc3cccc(O)c3)C2)cc1C (stereo not drawn)	46	1.8%	-1	-5.5	0.0	-10
Cc1ccc2nc(NC(=O)c3cccn(Cc4ccccc4F)c3=O)sc2c1	-4	u	x	x	1.1	x
C=C1C(=O)OC2CC3(C)OC3CCC(C)=CC(OC(C)=O)C12 (stereo not drawn)	-27	-2.6%	2	-5.4	0.7	10
O=Cc1cn(Cc2cccc(F)c2)c2ccccc12	0	-0.5%	0	-1.0	-0.2	0
CCOC(=O)c1cc2c(cn1)[C@@H](CCO)NC2	-10	1.1%	u	0.2	-0.9	-23
COC(=O)C1=C(c2ccccc2)C[C@@H]2CC[C@H]1N2C(=O)N1CCCCC1	86	-0.3%	4	-0.3	-0.3	0
O=[N+]([O-])c1cccc2c([N+](=O)[O-])cccc12	9	0.4%	-5	1.6	-0.4	-23
COc1cc(C(=S)N2CCOCC2)cc(OC)c1OC(=O)Cc1ccccc1	-2	1.2%	-7	-3.5	-0.2	-20
CC[C@H]1OC(=O)C[C@@H](O)[C@H](C)[C@@H](O[C@@H]2O[C@H](C)[C@@H](O[C@H]3C[C@@](C)(O)[C@@H](O)[C@H](C)O3)[C@H](N(C)C)[C@H]2O)[C@@H](CC=O)C[C@@H](C)C(=O)/C=C/C(C)=C/[C@@H]1CO[C@@H]1O[C@H](C)[C@@H](O)[C@@H](OC)[C@H]1OC	2	-0.2%	-2	2.5	-0.3	2
O=c1[nH]c(=O)n(CCc2ccc(F)cc2)c(O)c1C=NCCCn1ccnc1	5	1.6%	-1	-1.1	-0.1	4
COC(=O)C1=C(c2cccc(C#N)c2)C[C@@H]2CC[C@H]1N2C(=O)N1CCC(O)CC1	2	0.1%	11	-0.8	-0.6	4
NC(N)=N/N=C/c1cn(-c2ccccc2)nc1-c1cccs1	13	-2.5%	0	7.0	0.2	x
Cc1ccccc1-n1c(C)cc(/C=C2/C(=O)NC(=O)N(Cc3ccco3)C2=O)c1C	-7	2.5%	-2	-5.4	1.2	x
CN1C(=O)C(=Cc2ccc(N3CCCCCC3)cc2)C(=O)N(C)C1=O	5	-0.1%	6	-2.8	0.2	-1
COc1ccc(-c2[nH]ncc2CNC(C)Cc2ccsc2)c(F)c1 (stereo not drawn)	-15	-1.4%	1	-3.6	0.1	x
CCOP(=O)(OCC)C1(O)C(=O)Nc2ccc(Br)cc21 (stereo not drawn)	3	1.2%	4	-6.6	-0.3	5
O=C(CF)NC(Nc1cccc2cccnc12)C(Cl)(Cl)Cl (stereo not drawn)	19	0.2%	-8	0.6	6.5	-3
O=C1NC(=O)N(c2cccc(Cl)c2)C(=O)/C1=C\c1ccc(Sc2nc3ccccc3[nH]2)o1	-2	-0.9%	u	-4.1	22	3
COC(=O)C1=C(c2ccccc2OCc2ccccc2)C[C@@H]2CC[C@H]1N2C(=O)NCc1ccc(OC)c(OC)c1	11	0.9%	u	-2.2	1.5	-17

Further compounds follow:
SMILES	TRPML1 inh	PINK1 modulator	Six1-Eya2 inh	D2 agonist	TRPML1 ag	CtBP-E1A inh
O=c1[nH]c(=S)n(Cc2ccc(F)cc2)c(O)c1C=NCc1cccnc1	50	8.1%[38.3 µM]	1	-0.9	0.4	-1
Cc1ccc(NC(=O)N(Cc2ccc3c(c2)OCO3)C2CCN(Cc3ccccc3)CC2)cc1C	2	5.1%	x	x	2.4	x
Nc1ccc(Cl)cc1C(=O)c1ccccc1	9	10%	-6	-1.5	1.7	2
Clc1ccccc1CNCCc1c[nH]c2ccccc12	7	-1.3%	-17	-0.4	-0.9	-5
COc1cccc(N=Cc2c(O)n(Cc3ccco3)c(=O)[nH]c2=O)c1	-15	1.5%	-5	-3.1	0.3	0
COC(=O)C1=C(c2ccc(OC(F)(F)F)cc2)C[C@@H]2CC[C@H]1N2C(=O)NCCOc1ccccc1Cl	-5	u	-5	-2.7	0.2	4
O=C(Nc1ccc2c(c1)OCO2)c1cccn(Cc2ccccc2)c1=O	8	1.8%	x	x	-0.8	x
CCC(=NCc1ccco1)c1c(O)n(-c2ccccc2C)c(=O)[nH]c1=O	-17	-1.2%	-3	-0.7	0.6	2
Cc1cc2cc(CNC(=O)Nc3ccc(Cl)c(Cl)c3)ccc2n1C	30	u	-3	-6.4	0.6	0
CCCCn1c(O)c(C(C)=NCCN2CCOCC2)c(=O)[nH]c1=O	3	13%[38.3 µM]	2	-2.6	-0.6	3
CCOP(=O)(OCC)C(NC(=O)C(C)C)C(Cl)(Cl)Cl (stereo not drawn)	3	0.6%	1	-4.7	-0.5	3
CCOP(=S)(OCC)N1CC1	16	0.7%	6	-1.2	0.9	12
CC(C(=O)Nc1ccc(Br)cc1C(=O)c1ccccc1)N1CCOCC1 (stereo not drawn)	1	-1.2%	-3	-8.4	-0.9	1
CCC(C)c1ccc(N2C(=O)NC(=O)/C(=C/c3cccn3CCOc3ccc(C)cc3)C2=O)cc1 (stereo not drawn)	-9	28%	2	-1.5	1.2	-10
COC(=O)C1=C(c2ccc(F)cc2OCc2ccccc2)C[C@@H]2CC[C@H]1N2C(=O)NCc1ccc(F)cc1	26	0.9%	-4	0.3	1.9	-1
ClCCN(CCCl)c1ccc(C2=NCCc3ccccc32)cc1	1	u	-13	-0.5	0.5	-10
O=C(COc1ccccc1)Nc1ccc(Cl)cc1C(=O)c1ccccc1	-7	6.6%	4	-0.5	0.0	9

An excerpt; count on the stated rates, not on these rows.
